Compound activity: PubChem, ICCB-Longwood Screening Facility, Harvard Medical School
S aureus helic – blocks Staphylococcus aureus DNA helicase. purified S. aureus helicase, fluorescence unwinding assay; about half of the hits fall short of the stated cut. inhibition, %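 (tested at about 80 µM)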. actives 0.05% (n = 120,000). AID 485395;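 active = both duplicates at 50% or more, or one of them with a favoured structure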;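 also: 0% = mean of negative control wells and 100% = mean of positive control wells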
MgrA-DNA mod – modulators of Staphylococcus aureus MgrA DNA binding. fluorescence polarization. inhibition, %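 (about 10 µg/mL by stock and volumes)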. actives 0.13% (n = 84,000). AID 602314;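 active = above 50% in either of two replicates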;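 also: 0% = protein plus DNA without compound and 100% = DNA alone without protein; higher means less MgrA bound to DNA so lower polarization; one replicate is shown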
The depositor's hits bear a star; nt = not tested or not shown. These rows are one share of the data, so the mix of outcomes need not match the whole.

SMILES | S aureus helic | MgrA-DNA mod
Cc1cs/c(=N\C(=S)Nc2ccccc2)n1C | 5 | 4.5
Cn1c2c(c(=O)n(C)c1=O)C(CC(=O)O)C(=O)N2 (stereo not drawn) | 5 | nt
Cc1c(O)c(CN2CCOCC2)cc2c(-c3ccccc3)cc(=O)oc12 | 20 | nt
O=C(O)CN1C(=O)/C(=c2\sc3nc4ccccc4n3c2=O)c2ccccc21 | -2 | 2.2
N#Cc1c(N2CCOCC2)nn2cc(C(=O)c3ccccc3O)cnc12 | -5 | nt
NC(Cn1cccn1)c1ccccc1 (stereo not drawn) | 0 | nt
CC(=O)c1sc(-c2ccc(C(C)(C)C)cc2)cc1N | nt | 2.7
O=C(c1ccccc1)c1ccc(NC(=O)c2cccs2)cc1 | 18 | nt
CC1=NOC(=O)/C1=C/c1ccc(-c2ccccc2)o1 | 36 | 26
O=C1CC(c2c[nH]c3ccccc23)C(=O)N1c1ccccc1 (stereo not drawn) | 12 | 0.4
COc1ccccc1C(=O)Nn1cnc2ccccc2c1=O | -22 | nt
OCC1OC(Nc2ccccn2)C(O)C(O)C1O (stereo not drawn) | 8 | -0.8
CCCC(CCC)C(=O)Nc1c2c(nc3c1CCC3)CCCC2 | -18 | nt
C=CCn1c(SCC(=O)NCc2ccco2)nc2sc(C)c(C)c2c1=O | nt | -0.9
Cc1ccc(N2CCN(/N=C/C3=C(N4CCOCC4)C(=C\c4ccccc4)/CC3)CC2)cc1 | -3 | nt
NNC(=O)CCn1nnc(-c2cccc(Cl)c2Cl)n1 | nt | 0.3
CCc1ccc(C2=CC(c3cccc(Br)c3)C(C#N)C(=O)N2)cc1 (stereo not drawn) | 1 | -2.3
c1ccc(-c2nnc(-c3cccnc3)o2)cc1 | 9 | 24
CSc1ncc2c(=O)n(C(C)C)ccc2n1 | 13 | nt
Cc1ccc(Oc2ccccc2NC(=O)CN2CSCC2=O)cc1 | 32 | nt
CC(C)(C)C(=O)NC1CCN(CC(=O)Nc2ccccc2)CC1 | 1 | 1.1
N/C(=N\O)c1ccccn1 | 23 | -0.5
Cc1sc(-n2cccc2)c(C(=O)NC2CCCCCC2)c1C | -14 | nt
Cc1cc(NC(=O)Cn2c(COc3ccc4ccccc4c3)nc3ccccc32)no1 | 7 | nt
CCOC(=O)N1CCN(C(=O)C2CC(=O)N(c3ccccc3)C2)CC1 (stereo not drawn) | -4 | -0.3
CCOC(=O)c1c(C=O)oc2c(C)cc(OC(=O)c3cccc(Br)c3)c(Br)c12 | nt | 3.1
O=C(COC(=O)c1ccc2c(=O)n3c(nc2c1)CCCCC3)c1ccc(S(=O)(=O)N2CCCCC2)cc1 | -9 | nt
c1ccc2oc(-c3nn4c(Cn5nnc6ccccc65)nnc4s3)cc2c1 | -11 | nt
CSc1nc(COc2ccc(C(C)(C)C)cc2)nc(-n2cccc2)c1C#N | nt | -3.3
CCCC(=O)NCc1nc2ccccc2n1C | -17 | nt
NC(=O)CSc1nc2ccccc2s1 | 12 | 0.7
C=CCSc1nnc(NC(=O)Cc2coc3c(C)c(C)ccc23)s1 | -6 | nt
COc1ccccc1N1CCN(Cc2cccc3ccccc23)CC1 | nt | -1.4
O=C1SCCC1NS(=O)(=O)c1ccccc1 (stereo not drawn) | 10 | 1.5
CC1(C)CC(CC(=O)O)(c2ccc(F)cc2)CCO1 (stereo not drawn) | 6 | -3.0
CSc1ccc(S(=O)(=O)N2CCOCC2)cc1 | 2 | 2.5
O=C(CN1CCOCC1)Nc1cc(C(F)(F)F)cc(C(F)(F)F)c1 | nt | 0.6
O=C(O)CSc1ccc2c3c(cccc13)CC2 | -1 | -3.2
O=C(NCc1ccc2[nH]c3c(c2c1)CCCC3)C1CCCC1 | 17 | nt
COc1ccc(CNC(=O)C(C)On2nnc3ccccc32)cc1 (stereo not drawn) | -3 | nt
Cc1sc(Nc2ccccc2N2CCOCC2)nc1-c1ccc(-c2ccccc2F)cc1 | nt | -1.8
COc1ccc(-c2n[nH]c(=O)[nH]2)cc1 | 26 | nt
CCOc1cc(C(=O)NCc2ccc3[nH]c(C)cc3c2)cc(OCC)c1OCC | 17 | -0.4
CCCC(C)C(=O)N1CCN(c2ccc(F)cc2)CC1 (stereo not drawn) | 6 | 0.6
C#CCOC(=O)C1C2C=CC(C2)C1C(=O)O (stereo not drawn) | 16 | 3.4
COc1ccc([C@H]2[C@@H](C#N)[C@H](C#N)N3CCCN23)cc1 | 10 | -0.8
Cn1cccc1Cc1nnc(SCC(=O)N2CCCCC2)n1-c1ccc(F)cc1 | -16 | nt
COC(=O)c1cc(OC)c(OC)cc1NS(=O)(=O)c1ccc(OC)c(OC)c1 | nt | -0.4
CCOC(=O)c1oc2ccccc2c1CN1CCN(C)CC1 | 4 | nt
Cc1nn(-c2ccccc2)nc1CNC(=O)CC(C)(C)C | nt | 0.2

New compounds follow
SMILES | S aureus helic | MgrA-DNA mod
CCN1C(=O)C(NC(C)=O)c2ccccc21 (stereo not drawn) | -16 | nt
CC(=O)Oc1ccc2cc(-c3nnc(-c4ccccc4)o3)c(=O)oc2c1 | nt | 0.6
O=C(Cc1noc2ccccc12)N1CCCCC1c1nc2ccccc2s1 (stereo not drawn) | -14 | nt
O=C(CC1C(=O)NC2CCCCC2N1C(=O)Nc1cccc(Cl)c1)Nc1ccc2c(c1)OCO2 (stereo not drawn) | 17 | -1.8
O=C(O)/C=C/C(=O)NCc1cccc(Cl)c1 | -13 | nt
COc1ccc(NC(=O)CN(C)Cc2ccccc2)cc1 | -3 | nt
O=C1c2ccccc2NC(c2ccccc2)N1Cc1ccco1 (stereo not drawn) | 7 | -1.4
O=C(CSc1ccc2nnc(-c3ccccc3)n2n1)NCC1CCCO1 (stereo not drawn) | 11 | nt
Cc1c(Cl)cccc1NC(=O)NCCSCc1ccco1 | nt | -2.9
O=C(O)CCc1ccc(Cl)cc1Cl | nt | -1.6
O=C(O)c1cc(Br)ccc1NS(=O)(=O)c1cccc2nsnc12 | nt | 0.4
c1csc(COc2ccccc2CNC2CCCCC2)c1 | 8 | nt
O=C1CNC(=S)N1C1CCCCC1 | -6 | nt
O=S(=O)(c1ccccc1)c1ccc(Br)cc1 | 6 | 0.2
CCCn1c(N)c(C(=O)CSC2=NC(C(C)C)C(=O)N2c2ccc(C)cc2)c(=O)n(C)c1=O (stereo not drawn) | 7 | nt
CN(C)C(CNC(=O)c1ccc2ccccc2n1)c1ccccc1 (stereo not drawn) | 1 | nt
COc1ccccc1NC(=O)Cn1c(=O)n(Cc2ccc(F)cc2)c(=O)c2cccnc21 | 9 | nt
O=[N+]([O-])c1ccc(Nc2nc(N3CCOCC3)nc(N3CCOCC3)n2)cc1 | nt | -11
Cc1cc2nc3s/c(=C/c4cc([N+](=O)[O-])c(N5CCOCC5)cc4N4CCOCC4)c(=O)n3c2cc1C | nt | -1.9
CCc1c(C)nc2c(OC)cccc2c1Cl | 16 | 0.3
N#CCSc1nc2sc3c(c2c(=O)[nH]1)CCCC3 | 13 | nt
Cc1cc(C)n(-c2nc3ccccc3nc2Sc2nc3ccccc3s2)n1 | -19 | nt
CCOC(=O)c1c(C)noc1-c1csc(Nc2c(C)cc(C)cc2C)n1 | nt | -3.1
CCCCC(=O)N(c1ccc(OC)cc1)C1C=CS(=O)(=O)C1 (stereo not drawn) | 9 | -0.9
COCCNC(=S)N1c2ccccc2CC1C (stereo not drawn) | 28 | nt
CC1CCCC(NC(=O)CSc2nccn2C)C1C (stereo not drawn) | -15 | -7.8
CCn1c(SCC(=O)c2ccccc2)nnc1-c1ccco1 | 6 | -1.2
O=C(Nc1ccc(F)cc1)C1(c2ccccc2)CCOCC1 | 2 | nt
O=C(OCCN1C(=O)c2cccc3c(N4CCCCC4)ccc(c23)C1=O)c1cccc([N+](=O)[O-])c1 | nt | -0.8
Cc1nc2c3ccccc3n3c(CCCC(=O)NCCc4ccccc4)nnc3n2n1 | -2 | nt
COc1cccc(-c2nnn(CCc3nn[nH]n3)n2)c1 | 5 | -2.0
O=C(Cn1c(=O)n(-c2ccccc2)c(=O)n1CC(=O)N1CCCCC1)N1CCCCC1 | 4 | nt
CCOc1ccc(CC(=O)O)cc1 | -20 | -2.4
Cc1ccc(C(=O)N2CCN(c3ncnc4c(C)csc34)CC2)cc1 | nt | -0.5
O=C(O)/C=C/c1ccc2c(c1)OCCO2 | -10 | nt
O=C(NCCN1CCNC1=O)c1cnn(-c2ccc(Cl)cc2)c1C(F)(F)F | -41 | nt
O=C(O)CCn1c(=O)c2cc3c(=O)n(CCC(=O)O)c(=O)c3cc2c1=O | -12 | nt
O=C1CCCC2=C1C(c1ccccc1)N=C(Nc1nc3ccccc3s1)N2 (stereo not drawn) | 2 | 3.1
CCCCC(=O)Nc1c(-c2ccccc2)nc2ccccn12 | 1 | -2.2
CCCC(=O)Nc1sccc1C#N | 0 | nt
CCOC(=O)C1CCCN(C(=O)C2c3ccccc3Oc3ccccc32)C1 (stereo not drawn) | 8 | 0.2
O=c1c2ccccc2[nH]c(=S)n1CC1CC1 | nt | -0.5
O=C(CNc1cc(Cl)ccc1N1CCOCC1)N1CCCc2ccccc21 | -5 | nt
O=C(c1cccc(S(=O)(=O)N2CCCC2)c1)N1CCN(c2ccccc2)CC1 | 12 | nt
Cc1ccc(S(=O)(=O)Nc2ccccc2C(=O)NCc2ccco2)cc1 | 8 | nt
O=C(O)CC1SC(=Nc2ccccc2)N(c2ccccc2)C1=O (stereo not drawn) | 9 | nt
CN(C)S(=O)(=O)c1ccc2c(c1)C(=NNC(N)=O)c1cc(S(=O)(=O)N(C)C)ccc1-2 | -11 | nt
CC1CN(c2nc3ccccc3nc2SCC(=O)NCc2ccccc2Cl)CC(C)O1 (stereo not drawn) | 6 | -2.5
COC(=O)c1nc2nc(C)cc(C)n2n1 | 7 | nt
CCc1nc2ccccc2n1CC(=O)N(c1ccccc1)C(C)C | 10 | nt

Structures listed so far containing a cyano group, in the order listed:
SMILES | S aureus helic | MgrA-DNA mod
N#Cc1c(N2CCOCC2)nn2cc(C(=O)c3ccccc3O)cnc12 | -5 | nt
CCc1ccc(C2=CC(c3cccc(Br)c3)C(C#N)C(=O)N2)cc1 (stereo not drawn) | 1 | -2.3
CSc1nc(COc2ccc(C(C)(C)C)cc2)nc(-n2cccc2)c1C#N | nt | -3.3
COc1ccc([C@H]2[C@@H](C#N)[C@H](C#N)N3CCCN23)cc1 | 10 | -0.8
N#CCSc1nc2sc3c(c2c(=O)[nH]1)CCCC3 | 13 | nt
CCCC(=O)Nc1sccc1C#N | 0 | nt

Later entries:
SMILES | S aureus helic | MgrA-DNA mod
O=C(CSc1nc2[nH]c(=O)[nH]c(=O)c2s1)c1ccccc1 | 4 | 0.8
Cc1cc(SC(C)C(=O)O)nc2ccccc12 (stereo not drawn) | -6 | -0.5
CC(=O)Oc1cccc(O)c1 | nt | 2.1
NC(=O)c1ccsc1NC(=O)c1ccc(Br)s1 | 8 | nt
Cn1c(CC(C)(C)C)nc2ccccc21 | -36 | nt
CCOc1cc(C=C2C(=O)NC(=O)NC2=O)cc(Br)c1OCCOc1ccccc1OC | nt | 9.8
O=C(Nc1ncn[nH]1)/C(=C/c1ccc(Cl)cc1)c1ccc(F)cc1 | 7 | -2.0
O=C1CC2(CC(=O)Oc3cc(O)ccc32)c2ccc(O)cc2O1 | 8 | -4.7
CC(CC(=O)N1CCCc2ccccc21)S(=O)(=O)c1ccc2c(c1)NC(=O)CO2 (stereo not drawn) | 20 | nt
O=C(/C=C/c1cc(Cl)c2c(c1)OCCCO2)Oc1ccc(-c2nnco2)cc1 | 10 | nt
O=C(O)CCC(=O)N1CCN(c2ncccc2C(F)(F)F)CC1 | nt | -1.7
Cc1ccc(NC(=O)N2CCCC2C(=O)NCC2CCCCC2)cc1 (stereo not drawn) | 9 | -0.3
c1ccc(N2CCN(c3ccccn3)CC2)cc1 | 3 | nt
COc1ccccc1CNC(=O)c1cn(C)c2ccc(S(=O)(=O)N3CCCCC3)cc2c1=O | -11 | nt
CCN1C=C/C(=C\c2cc[n+](CC)c3ccccc23)c2ccccc21 | 82* | 3.9
CCOc1ccc(CNC(CC(C)C)C(=O)O)cc1 (stereo not drawn) | 12 | nt
CCOC(=O)c1c(-c2ccc(OC)cc2)oc2ccc(OC(=O)N3CCOCC3)cc12 | 14 | nt
COc1ccccc1C(=O)COC(=O)c1ccccc1C(F)(F)F | -17 | -1.3
CCSc1ncnc2c1sc1nc3c(cc12)COC(C)(C)C3 | 7 | 1.2
COc1ccc(/C(C#N)=C/c2ccc(NC(C)=O)cc2)cc1 | nt | 1.3
COc1ccc(NC(=O)CC2CC3CCC2C3)cn1 (stereo not drawn) | 16 | nt
CC(=O)NC1(c2ccccc2)CCN(Cc2nnnn2C(C)(C)C)CC1 | 19 | -1.3
COc1ccc2oc(-c3ccccc3)cc(=O)c2c1 | nt | -2.4
CN1C(=O)N(C)C2OC3OC4C(OC3OC21)N(C)C(=O)N4C (stereo not drawn) | -7 | 2.6
CCCc1c(C(=O)Nc2cc(F)ccc2F)cnn1C | nt | 1.4
Cc1ccc(/C=C2\SC(=S)N(C(Cc3ccccc3)C(=O)O)C2=O)cc1 (stereo not drawn) | nt | 2.8
N=c1oc2ccc(Br)cc2cc1-c1nc(-c2cc3ccccc3oc2=O)cs1 | nt | 0.6
O=C(NCc1ccncc1)c1cn(-c2ccccc2)nc1-c1cccs1 | -24 | -0.6
Cc1ccc(NC(=O)CSc2nccn2-c2ccccc2)cc1 | 8 | nt
O=C1C(Cc2ccc(-c3nn[nH]n3)cc2)=C(c2ccccc2)S(=O)(=O)c2ccccc21 | nt | 24
Cc1cccc(NC(=O)CCn2ccc(C)n2)n1 | 2 | nt
O=C(c1ccc(Br)o1)N(c1ccc(Br)cc1)C1C=CS(=O)(=O)C1 (stereo not drawn) | 5 | nt
N#Cc1ccc(-n2cccc2)cc1 | nt | 5.2
